Screening data as filed in PubChem BioAssay.
Vif TR-FRET: HIV-1 Vif–A3G interaction blockers – biochemical, TR-FRET, GST-Vif 1-94, biotin-A3G peptide, dose response retest, primary screen (AID 1117319) | one-dose inhibition, %; IC50 in µM for titrated hits | 260,000 tested, 0.57% active | TR-FRET GST-Vif / biotin-A3G peptide binding; higher % means a stronger effect; test concentration not given here; strong numbers were not always called active;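 active means above the screen mean plus three standard deviations and confirmed in dose response; inconclusive means results disagree or hit not tested in dose response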;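 further: Vif residues 1-94 fused to GST binding biotinylated APOBEC3G peptide 110-148; 0% = full assay without inhibitor and 100% = GST in place of GST-Vif; retest series ran down from 100 µM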
FGF22 binding: shifts melting point of recombinant human FGF22 | Q9HCT0 | recombinant FGF22 thermal shift, SYPRO orange fluorescence; percent of sucrose octasulfate shift, DMSO zero | calls only at 9.99 µM | 340,000 tested, 1.5% active;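 active means melting point raised past a set limit in the mean and every replicate; inconclusive means no clear call; three in four hits are not shown here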
Target sequence (Q9HCT0 whole entry, looked up): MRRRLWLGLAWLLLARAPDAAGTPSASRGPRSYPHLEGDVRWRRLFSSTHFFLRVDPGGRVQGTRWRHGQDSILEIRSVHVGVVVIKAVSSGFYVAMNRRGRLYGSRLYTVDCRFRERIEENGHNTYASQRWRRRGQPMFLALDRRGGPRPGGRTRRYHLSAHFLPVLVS
HNF4A DNA FP: change in binding of human HNF4 alpha to DNA. 360,000 tested, 0.3% active. HNF4a-FITC DNA binding, fluorescence polarization, 1 h. activity change, % at 10 µM. AID 1224865; in the data active means activity change above about 30%, passing the limit was not always enough;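 further: controls were the assay level and a saturating level of protein; the project sought stronger binding though the title names inhibitors; some compounds called inactive have numbers as strong as hits; positive values seem to mean higher polarization but the record does not say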
Target sequence (P41235 whole entry, looked up): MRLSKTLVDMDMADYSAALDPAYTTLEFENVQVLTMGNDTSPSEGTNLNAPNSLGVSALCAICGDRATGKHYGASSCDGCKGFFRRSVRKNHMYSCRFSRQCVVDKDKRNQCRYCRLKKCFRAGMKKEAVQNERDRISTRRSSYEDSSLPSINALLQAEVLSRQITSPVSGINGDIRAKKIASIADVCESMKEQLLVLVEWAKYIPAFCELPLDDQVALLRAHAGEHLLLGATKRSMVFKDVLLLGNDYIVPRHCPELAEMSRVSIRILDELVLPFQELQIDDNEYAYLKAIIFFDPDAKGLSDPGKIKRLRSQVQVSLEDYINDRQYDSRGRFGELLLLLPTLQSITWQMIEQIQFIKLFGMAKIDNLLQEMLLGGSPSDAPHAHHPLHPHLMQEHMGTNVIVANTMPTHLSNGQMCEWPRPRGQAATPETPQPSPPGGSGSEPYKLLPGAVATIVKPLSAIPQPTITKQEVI
Ecoli rRNA inh: inhibits bacterial ribosomal RNA function over humanized ribosomes; E. coli WT GFP vs humanized-ribosome RFP mutants, fluorescence, 24 h; active compounds read low; DMSO median 0, no signal -100; GFP signal change (wild-type ribosome), % (test concentration not listed); 350,000 tested, 1.6% active;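 active means significant combined selectivity score with lowered wild-type GFP, culture density cut under 30%, mutant RFP and density less affected; inactive means any of these conditions unmet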; further: one replicate is shown; some compounds called inactive have numbers as strong as hits
ALR H2O2 inh: blocks human ALR sulfhydryl oxidase activity; P55789; purified ALR, DTT oxidation, H2O2 HRP-luminol luminescence; inhibition, % (no concentration beside the values); 290,000 tested, 3.8% active; AID 485317;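 active means mean and each replicate at 75% or more; inconclusive means only one of the two met; inactive means neither met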;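 further: stock transfer was 7.5 nL into about 7.5 µL; 0% = neutral wells and 100% = wells with inactivated enzyme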
Target sequence (P55789 whole entry, looked up): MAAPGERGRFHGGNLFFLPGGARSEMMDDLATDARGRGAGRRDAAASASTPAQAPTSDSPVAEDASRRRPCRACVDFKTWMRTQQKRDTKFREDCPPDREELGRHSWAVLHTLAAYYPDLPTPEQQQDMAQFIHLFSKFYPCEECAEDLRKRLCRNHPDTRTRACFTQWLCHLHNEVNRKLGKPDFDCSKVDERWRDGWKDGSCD
Ecoli growth: E. coli growth inhibition; Escherichia coli growth, OD600, 23 h; active compounds read low; OD600 absorbance (concentration not given with the values); 330,000 tested, 0.21% active; AID 1053175;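 active means OD600 absorbance below the run mean of sample wells minus 3.6 SD, in any replicate, cut at about 0.56 in these data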;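 further: stock transfer was 300 nL into about 60 µL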
MLL AF4-AF9 inh: MLL-AF4/AF9 protein interaction inhibition | inhibition, % at 10 µM | AID 651704 | P42568 | 350,000 tested, 0.47% active | AlphaScreen, biotin-AF4 peptide binding to FLAG-AF9;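 active means every replicate reaching a set inhibition limit, whatever the replicate mean, cut at about 25% in these data; inconclusive means mean inhibition reaches that limit but some replicates miss it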;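 further: 0% = plate neutral control median and 100% = total signal loss; the record names both 10 and 1 µM as test concentration; the first replicate is given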
Ecoli rRNA inh OD600: further read-out of Ecoli rRNA inh, marked with its call; OD600 change, %; measured here: OD600 growth;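 optical density of the mix in the first replicate; 0 = DMSO median and -100 = no signal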
Ecoli rRNA inh RFP: second read-out of Ecoli rRNA inh, no call of its own (marks repeat the call); RFP signal change, %; measured here: RFP humanized mutant strains;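 first replicate; 0 = DMSO median and -100 = no signal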
Starred values were filed as active, the others as inactive; i = inactive; ? = inconclusive; · = no result given.

SMILES | Vif TR-FRET | FGF22 binding | HNF4A DNA FP | Ecoli rRNA inh | Ecoli rRNA inh OD600 | Ecoli rRNA inh RFP | ALR H2O2 inh | Ecoli growth | MLL AF4-AF9 inh
Cc1ccc2c(CC(=O)NC3CCS(=O)(=O)C3)coc2c1C (stereo not drawn) | · | i | -0.4 | 22 | 10 | 3.7 | -13 | 0.7 | 0.3
Cn1nnnc1SCc1nc2ccccc2[nH]1 | 0% | · | -1.1 | · | · | · | -13 | 0.76 | ·
O=C(NNS(=O)(=O)c1ccc(F)cc1F)c1csc(-c2cccnc2)n1 | 3% | i | -1.7 | · | · | · | 20 | 0.68 | 0.2
COc1ccc(-c2cnc3c(c2)C(=O)N([C@H](C)CO)C[C@@H](C)[C@@H](CN(C)Cc2ccccc2)O3)cc1 | · | i | · | 1 | 0 | -1.4 | · | · | 0.6
CCOC(=O)N1CCN(S(=O)(=O)c2ccc(C(=O)Nc3nnc(C4CC4)o3)cc2)CC1 | 3% | · | 1.6 | · | · | · | -5 | 0.67 | ·
CCOC(=O)c1c(C)[nH]c(C)c1S(=O)(=O)N(C)CC(=O)NCc1cccc(Br)c1 | 0% | i | 1.8 | -15 | -10 | 7.3 | 2 | 0.68 | -3.4
CCN(CC(=O)NCc1cccs1)C(=O)c1cccc(S(=O)(=O)N2CC(C)OC(C)C2)c1 (stereo not drawn) | · | i | -0.2 | 2 | 10 | -1.1 | · | 0.7 | 0.8
COc1ccc(NC(=O)CSCC(=O)N2CCCc3ccccc32)cc1 | · | · | 0.7 | -3 | -7 | 0.0 | 90* | 0.69 | -0.9
COc1ccccc1Oc1ccnc2cc(Cl)ccc12 | · | i | -6.4 | -23 | -49 | -3.7 | 22 | 0.69 | -2.8
C[C@H](CO)N1C[C@H](C)[C@H](CN(C)S(=O)(=O)c2cccs2)Oc2ncc(C#CCN(C)C)cc2C1=O | · | i | · | 1 | 3 | -1.6 | · | · | 0.4
Cc1ccc(C(C)C)c(OCC(=O)NNC(=O)Cc2ccc(S(=O)(=O)N3CCOCC3)s2)c1 | 0% | i | 8.9 | -15 | -54 | 24 | 1 | 0.68 | -2.2
Cc1ccc(NC(=O)CCCc2nc3ccccc3s2)c(O)c1 | 16% | i | 0.8 | · | · | · | 61 | 0.7 | -2.4
CC(C)OC(=O)CSc1nnc(-c2cnccn2)n1-c1ccccc1 | 1% | · | -1.0 | · | · | · | 1 | 0.71 | ·
Cc1ccc(C)c(N(C)C(=O)CCS(=O)(=O)c2cccc3nonc23)c1 | 3% | i | -1.4 | -6 | -19 | -1.1 | · | 0.68 | 4.9
CCCn1ncc(CN2CCC(N3CCC(C(=O)N4CCOCC4)CC3)CC2)c1C | -3% | i | 0.3 | 7 | 5 | 0.2 | 0 | 0.68 | 1.3
O=C(c1ccc2c(c1)OCO2)N1CC(=O)N2[C@@H](CO)[C@@H](c3ccc(C#CCC4CCCC4)cc3)[C@@H]2C1 | · | i | · | -11 | -49 | 20 | · | · | 7.2
O=C(O)CSC1CC(=O)N(c2ccc(F)cc2)C1=O (stereo not drawn) | 4% | i | 3.6 | 1 | 7 | 0.8 | · | · | 1.6
O=C(NCC(O)CN1CCOCC1)c1ccc([N+](=O)[O-])cc1 (stereo not drawn) | -1% | i | -0.9 | 14 | 9 | -1.5 | -8 | 0.7 | -2.8
COC(OC)c1ccnc(-c2ccc(OC(=O)c3cccs3)cc2)n1 | -2% | i | 2.7 | -27 | -44 | -4.7 | -6 | 0.7 | -4.5
C=CCOc1ccc(CNn2cn[nH]c2=S)cc1 | 0% | · | -2.6 | · | · | · | -6 | 0.7 | ·
COc1ccc(NC(=O)c2cc(OC)c(OC)c(OC)c2)cc1S(=O)(=O)N1CCCCC1 | -11% | i | -0.4 | -23 | -22 | 10 | -1 | 0.69 | -11
COc1ccc(CCNC(=O)c2cc(=O)c3cc(C)ccc3o2)cc1 | · | i | 1.8 | -6 | -3 | 0.9 | 0 | 0.7 | -0.8
CCn1c(=S)[nH]c2cc(Cl)ccc21 | -11% | i | 3.5 | -3 | -28 | -2.2 | 71 | 0.59 | 3.7
Cc1cc(NC(=O)COC(=O)C2CC(=O)N(c3ccc(Br)cc3)C2)no1 (stereo not drawn) | · | i | -0.1 | 2 | 0 | -0.7 | -2 | 0.67 | -3.8
O=C(NCC[C@@H]1CC[C@@H](NC(=O)c2ccncc2)[C@@H](CO)O1)Nc1ccc(Cl)cc1 | · | i | · | -53 | -59 | -9.4 | · | · | 10
C[C@H]1CN([C@@H](C)CO)C(=O)c2cc(NC(=O)CCCN(C)C)ccc2O[C@@H]1CN(C)Cc1ccncc1 | · | i | · | 3 | 4 | 0.2 | · | · | -0.6
CCCN1C[C@@H](C)[C@@H](OC)CN(C)C(=O)c2ccc(NC(=O)c3ccccc3F)cc2OC[C@@H]1C | · | i | · | 4 | 4 | -0.5 | · | · | -1.4
O=C(NCCNC(=O)c1ccccn1)c1ccc(Cl)cc1 | · | i | -0.6 | 6 | 4 | 0.9 | 2 | 0.64 | -0.1
Cc1ccc(C(=O)Nc2cccc(NC(=O)c3ccc(C)c([N+](=O)[O-])c3)n2)cc1[N+](=O)[O-] | -6% | i | -5.1 | 3 | 12 | 0.2 | · | 0.68 | -3.2
CCNC(=O)[C@@H]1[C@@H](CO)[C@@H]2Cn3c(ccc(/C=C/c4ccccc4)c3=O)[C@@H]2N1C(C)=O | · | i | · | 2 | 6 | 1.1 | · | · | 1.1
CCN(CC)C(=O)[C@H]1C[C@H](CC(=O)NCCC2=CCCCC2)C(=O)N2CCc3c([nH]c4cc(CCC(=O)N(C)C)ccc34)[C@]12C | 5% | i | 1.2 | -1 | -4 | 5.6 | · | 0.69 | -2.8
C[C@@H]1CN([C@H](C)CO)S(=O)(=O)c2ccc(C3=CCCC3)cc2O[C@@H]1CN(C)CC1CC1 | · | i | · | 1 | 4 | 1.8 | · | · | 5.3
CN(Cc1ccccc1)C1CCCN(C(=O)c2ccc(Cl)s2)C1 (stereo not drawn) | · | i | 2.9 | -1 | 1 | 0.0 | -12 | 0.65 | 1.7
CC(C)C#Cc1ccc([C@@H]2[C@H](C#N)N(C(=O)CN(C)C)[C@H]2CO)cc1 | · | i | · | 5 | -5 | -1.8 | · | · | -3.3
CCOc1ccc2nc(SCC(=O)NCc3ccccc3)[nH]c2c1 | 2% | i | -1.7 | -10 | -9 | -5.4 | 0 | 0.64 | 0.5
CCN(CC)CCCn1c2c(c(SCC(=O)Nc3ccc4c(c3)OCO4)nc1=O)CCC2 | -4% | i | 1.6 | 8 | 7 | -1.0 | 96* | 0.68 | 0.9
CCOc1ccc(CN2CCN(Cc3cccn3-c3cccnc3)CC2CCO)cc1 (stereo not drawn) | 2% | i | -1.2 | 6 | 6 | 4.6 | 1 | 0.7 | 5.2
Cc1noc(C)c1C(=O)N1CCC1(C)C(=O)NS(=O)(=O)c1ccc(C#N)cc1 (stereo not drawn) | · | i | -0.6 | 4 | 11 | -0.8 | · | · | 0.8
Cc1nn(C)c(C)c1/C=C/C(=O)c1cccs1 | 0% | · | -0.2 | · | · | · | · | 0.69 | ·
COc1ccccc1CNC(=O)CCS(=O)(=O)c1cccs1 | 6% | · | 1.1 | · | · | · | -1 | 0.7 | ·
COP(=O)(OC)c1nc(-c2ccc([N+](=O)[O-])cc2)oc1N1CCCCC1 | -1% | i | 1.1 | 0 | 5 | 0.9 | -13 | 0.66 | 1.8
COc1ccccc1N1CC=C(c2cccc([N+](=O)[O-])c2)NC1=O | · | i | -4.4 | -2 | -10 | -0.8 | 2 | 0.64 | 6.2
O=C(O)C1CSC(c2ccc(O)c([N+](=O)[O-])c2)N1 (stereo not drawn) | · | i | 0.8 | 16 | 3 | 7.5 | · | 0.71 | -1.7
Cc1ccc(CSC2=NCCN2S(=O)(=O)c2ccc(F)cc2)cc1 | 7% | i | 4.1 | -3 | -38 | -0.6 | -11 | 0.68 | -5.8
C[C@H]1CN([C@@H](C)CO)C(=O)Cc2cc(NC(=O)Cn3cnnn3)ccc2O[C@@H]1CN(C)Cc1ccc2c(c1)OCO2 | · | i | · | 3 | 10 | 3.7 | · | · | -0.4
C[C@H]1CN([C@@H](C)CO)C(=O)c2cc(NC(=O)Nc3ccc4c(c3)OCO4)ccc2O[C@H]1CN(C)C(=O)Nc1cccc2ccccc12 | · | i | · | 0 | 1 | 1.7 | · | · | 1.4
O=C(NCCCN1CCCC1=O)c1cccc(S(=O)(=O)Nc2ccccc2Cl)c1 | -9% | i | 2.9 | 2 | -2 | -3.4 | -1 | 0.65 | -11
CC1CN(C(=O)c2cc3c(=O)n4ccccc4nc3s2)CC(C)O1 (stereo not drawn) | -2% | · | 0.2 | · | · | · | -3 | 0.72 | ·
CCn1cc(S(=O)(=O)N2CCN(Cc3ccc(F)cc3)CC2)cn1 | 14% | i | -1.5 | 6 | 0 | 1.0 | -2 | 0.67 | 2.4
CCC(=O)N(C)C[C@@H]1Oc2cc(-c3cccnc3)ccc2S(=O)(=O)N([C@H](C)CO)C[C@@H]1C | · | i | · | 1 | 4 | -2.7 | · | · | 1.2
Cc1ccccc1OCCN1C(=O)c2ccccc2C1=O | -9% | i | -2.5 | 4 | -2 | -3.1 | 0 | 0.72 | 1.7
COc1ccc(CC(=O)Nc2ccc(S(=O)(=O)N3CCN(C)CC3)cc2)cc1 | -8% | i | -0.1 | 8 | 8 | -0.7 | -2 | 0.69 | 2.0
Cc1ccc2nc(-c3ccccc3)cc(C(=O)N3CCN(S(=O)(=O)c4c(C)noc4C)CC3)c2c1 | · | i | -3.0 | 13 | 13 | 2.2 | -9 | 0.69 | 0.2
CC(C)CNc1nc(=S)nc(N(C)C)[nH]1 | 6% | i | 3.4 | -8 | 5 | -0.2 | 1 | 0.69 | -1.8
C#CC(C)(CC)NC(=O)c1cc2cccc(CC=C)c2oc1=O (stereo not drawn) | · | i | 0.8 | · | · | · | 1 | 0.7 | -1.2
O=C(Nc1cc(Br)ccc1O)c1cc(-c2ccccc2)on1 | · | i | -0.1 | 12 | 3 | 4.5 | · | 0.72 | -10
COc1ccc(/C=N/Nc2ncc(-c3ccccc3)cn2)c(OC)c1 | 8% | · | -1.1 | · | · | · | -9 | · | ·
Cc1ccc(NS(=O)(=O)c2ccc3c(c2)NC(=O)CCS3)c(Br)c1 | · | i | 0.3 | -13 | -39 | -5.0 | 5 | 0.7 | -0.2
CCCc1ccc(C(=O)NNc2cccc(C)c2)cc1 | · | i | -2.0 | · | · | · | -5 | 0.67 | 1.2
COCC(=O)NC1CCN(C(=O)Nc2ccc(Br)cc2)CC1 | -8% | · | -1.0 | · | · | · | -5 | 0.72 | ·
Cc1ccc(S(=O)(=O)NCCCCCC(=O)NC(C)(C)CO)cc1 | ? | · | 0.6 | · | · | · | -4 | 0.7 | ·
NS(=O)(=O)c1ccc(NC(=S)NC2CCCCC2)cc1 | · | i | 0.4 | 1 | 3 | -1.9 | -4 | 0.65 | -1.0

Not all compounds are listed. The share of hits here may be higher or lower than overall.
